# YjeE inh: YjeE (TsaE) inhibition, E. coli. P0AF67. purified YjeE, fluorescence polarisation of a bound ADP probe. Potency, µM. actives 0.05% (n = 71,000); active = well fitted falling curve; inconclusive = weaker or top-dose-only fall, or a rising curve; inactive = flat or poorly fitted curve;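 further: top concentration of the series not given in the record; excess ADP was the control for the full effect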
#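 Fluorescence polarization of a BODIPY Texas Red–ADP probe (2 uM) bound to purified YjeE (10 uM) was read after 15 min room-temperature incubation with compounds. Loss of polarization marks inhibitors; ADP serves as titrated control.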
# PK Bst: modulators of Bacillus stearothermophilus pyruvate kinase. partly purified Bacillus stearothermophilus pyruvate kinase, luminescence ATP production; ribose 5-phosphate activator present at AC10. Potency, µM. actives 1.2% (n = 51,000); in the data active means potency below about 11 µM; inconclusive means mostly about 12 µM to 25 µM; inactive means weaker than that;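 the screen sought inhibitors and activators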;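 further: potency means the concentration at half of the fitted maximal effect; scaled between full activation by ribose 5 phosphate and full inhibition by luteolin; about four in five hits inhibit and the cells do not say which; series up to 57 µM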
# Numbers without * were called inactive; i = inactive; ? = inconclusive; nt = not tested or not shown. This is a subset; rates above refer to the full screens.
YjeE inh,PK Bst,smiles
i,>57,Cc1noc(C)c1CSc1nc2ccccc2s1
i,i,CCOC(=O)c1c(NC(N)=O)sc(C)c1C
i,nt,Cc1nnc2ccc(N3CCN(C(=O)c4ccccc4)CC3)nn12
i,nt,C[C@H](Oc1ccc(Oc2cnc3ccc(Cl)cc3n2)cc1)C(=O)O
i,>57,Cn1c(-c2ccccc2)cnc1SCC(=O)NCc1ccco1
i,>57,COc1cccc(-c2nnc(SCC(=O)N3CCCc4ccccc43)o2)c1
i,>57,CCCn1c(SCC(=O)Nc2ccccc2N2CCCCC2)nc2c1c(=O)n(C)c(=O)n2C
i,nt,Cc1ccc2nc(NC(=O)C3CCCN(S(=O)(=O)c4cnc[nH]4)C3)sc2c1 (configuration not stated)
i,nt,c1ccc(-c2csc(N3CCCCCC3)n2)cc1
i,>57,O=C(O)CNC(=O)c1ccc(OC(F)F)cc1
i,nt,CCOCC(O)CS(=O)Cc1ccccc1 (configuration not stated)
i,nt,O=c1cnc2cnc(N3CCOCC3)nc2n1C[C@H]1CCCO1

# Next section
YjeE inh,PK Bst,smiles
i,>57,CS(=O)(=O)N(CCc1ccccc1)CC(=O)N1CCN(c2ccccc2F)CC1
i,>57,COc1cc2c(cc1NC(=O)c1cncc(Br)c1)oc1ccccc12
i,>57,CN(C(=O)c1ccno1)c1nnc(-c2cccnc2)s1
i,>57,O=C(NCCC1=CCCCC1)C1CCN(Cc2cnn(-c3ccccc3)c2-n2cccc2)CC1
i,>57,CN(C)c1ccc(NC(=O)CSc2nc3ccccc3c(=O)n2C2CCCCC2)cc1
i,nt,O=C(CCN1C(=O)c2ccccc2C1=O)N1CCCCCC1
i,>57,CCn1nnnc1-c1ccc(OC)c(S(=O)(=O)Nc2ccc(OC)cc2)c1
i,>57,Cc1c(C(=O)NC(C)c2ccncc2)oc2ccccc12 (configuration not stated)
i,>57,O=c1[nH]c(NCc2ccco2)nnc1Cc1ccccc1Cl
i,nt,Nc1c(C(=O)Nc2ccc3c(c2)OCCO3)nnn1CCc1ccccc1
i,nt,CCn1c(C)c(C(C)=O)c(N2CCCC2)nc1=S
i,>57,COc1ccc(-n2c(SCC(=O)N3CCCC(C)C3)nnc2-c2cccnc2)cc1 (configuration not stated)

# Next entries
YjeE inh,PK Bst,smiles
i,nt,O=C(CSc1nnc(Cn2c(=O)sc3ccccc32)n1-c1ccccc1)N1CCCC1
i,>57,Cc1c(NC(=O)c2ccc(N3C(=O)C4C5C=CC(C5)C4C3=O)cc2)c(=O)n(-c2ccccc2)n1C (configuration not stated)
i,>57,COc1cc(S(=O)(=O)N2CCOCC2)ccc1F
i,nt,O=C1CSC2=NCN(c3ccc4c(c3)OCO4)CN12
i,nt,COC(=O)c1ccc(-n2c(C)cc(/C=N/n3cnnc3)c2C)cc1
i,>57,CCN(CCO)Cc1cc(=O)oc2c(C)c(C)ccc12
i,nt,COc1cc(CN2CCN(CCOCCO)CC2)cc(OC)c1OC
i,>57,COc1ccc(OCc2nn3c(-c4cccc(OC)c4)nnc3s2)cc1
i,>57,CCCN(CCC)C(=O)CSc1nc2ccccc2c(=O)n1C1CCCC1
i,nt,Cc1cc(=O)[nH]c2c(C)c(Cl)ccc12
i,>57,CCCCCCn1c(N2CCC(C(N)=O)CC2)nc2c1c(=O)n(C)c(=O)n2C
i,>57,Cc1cc(C)c(C(N)=O)c(NCCc2ccccc2)n1

# (cont.)
YjeE inh,PK Bst,smiles
i,>57,Cc1ccc(C)c(N2CCN(C(=O)CN(C)S(=O)(=O)c3cnc[nH]3)CC2)c1
i,>57,COC(=O)Nc1nnc(CCc2ccccc2)s1
i,nt,CCOc1ccc(CCNC(=O)c2nnc(Cc3ccc(F)cc3)o2)cc1OCC
nt,>26,CCOC(=O)c1[nH]c2ccccc2c1NC(=O)CCN1CCN(C(=O)OCC)CC1
i,>57,Cc1ccc(N(CC(=O)NC2CCCC2)C(=O)CCCC(=O)Nc2ccccn2)cc1C
i,>57,CCOc1cc(C2C(C(=O)OCC(C)C)=C(C)N=C3SCCC(=O)N32)ccc1OC(C)=O (configuration not stated)
i,nt,COc1ccc(C2CC(c3cccc(Cl)c3)n3nc(N)nc3N2)cc1 (configuration not stated)
i,nt,COc1ccc(-c2oc3cc(OC)c(OC(C)=O)c(OC)c3c(=O)c2OC)cc1OC(C)=O
i,>57,Cc1cc2ccccn2c1C(=O)c1ccncc1
i,>57,COc1ccc(CNS(=O)(=O)c2ccc(S(=O)(=O)N3CCCCC3)cc2)cc1
i,nt,O=C(NCc1ccccn1)Nc1ccc2c(c1)OCO2
i,>57,COC(=O)c1ccccc1NC(=O)c1sc(=S)n(C)c1N

# Next structures
YjeE inh,PK Bst,smiles
i,>57,Cn1c(=O)c2c(nc(CN3CCN(C(=O)c4ccco4)CC3)n2CCc2ccccc2)n(C)c1=O
nt,>26,COC(=O)CN(c1nc(C)c(Br)c(OC)n1)S(=O)(=O)c1ccc(C)cc1
i,>57,CCc1nnc(SCC(=O)NC2CCCCC2)nc1CC
i,>57,Cc1ccccc1N1OC2C(=O)N(c3ccc(F)cc3)C(=O)C2C1c1ccccn1 (configuration not stated)
i,>57,COc1cc(Cn2c(=O)oc3ccc(C)cc32)ccc1OC(C)C
i,>57,NC(=O)C1CCN(C(=O)C2c3ccccc3C(=O)N3CCc4ccccc4C23)CC1 (configuration not stated)
i,>57,CCN1C(=O)c2cccc3c(S(=O)(=O)Nc4ccccc4OC)ccc1c23
i,>57,CN(c1ccccc1)S(=O)(=O)c1cc(C(=O)c2nccn2C)ccc1Cl
i,>57,COC(=O)c1cccc(NC(=O)CN2CCN(c3ccc(OC)cc3)CC2)c1
i,>57,Cc1cc(O)cc(O)c1-c1onc(C(F)(F)F)c1-c1cscn1
i,>57,O=C(Nc1ccc2nccnc2c1)c1cnccn1
i,nt,O=Nc1ccc(NO)cc1

# New compounds follow
YjeE inh,PK Bst,smiles
i,nt,Cc1cccc2cc(CN(Cc3ccco3)C(=O)NC3CCCCC3)c(=O)[nH]c12
i,1.7*,Cc1ccc(-c2nc3cc(NC(=O)C(C)C)ccc3o2)cc1C
i,>57,O=C(OCn1nnc2ccccc2c1=O)c1ccc(Br)o1
i,nt,CCOc1ccc(N(CC(=O)NC(C)CC)S(=O)(=O)c2c(C)noc2C)cc1 (configuration not stated)
i,>57,O=C(CSc1nc(N2CCCCC2)nc(N2CCCCC2)n1)Nc1nccs1
i,>57,COc1cc(Cl)cc(C2NC(=O)NC(C)=C2C(=O)NCc2ccccc2)c1O (configuration not stated)
i,?,Cc1c(C(=O)OCCOc2ccccc2)[nH]c2c1C(=O)CCC2
i,nt,O=C(Nc1ccc(Nc2ccccc2)cc1)c1ccc(Br)o1
i,>57,Cc1cc2cc(CNC(=O)Nc3ccccc3)ccc2n1C
i,nt,O=C1c2ccccc2C(=O)N1C1(C(=O)NC2(C(=O)O)CCCC2)CCCC1
i,>57,CC(C)C[C@H](NC(=O)OC(C)(C)C)c1nnc(SCC(=O)Nc2ccc(Br)cc2)o1
i,>57,CCOc1ccc(CNC(=O)CCn2c(=O)oc3ccccc32)cc1OC

# Following part.
YjeE inh,PK Bst,smiles
i,>57,CCC(C)C(NC(=O)C1CCC(C)CC1)C(=O)NCc1cccnc1 (configuration not stated)
i,>57,CC(=O)C(Sc1nc(NC(C)(C)C)nc(N(C)C)n1)C(C)=O
i,?,COc1cccc(C(=O)N2CCN(Cc3ccco3)CC2)c1OC
i,>57,C/C(N)=C(/C#N)C(=O)COC(=O)COc1ccc(Cl)cc1
i,nt,COc1cccc(NC(=O)N2CCOCC2)c1
i,>57,Cc1ccccc1-c1nnc(SCC(=O)NC2CCCCC2)o1
i,>57,NC(=O)C1CCN(C2CC(=O)N(c3cccc(F)c3)C2=O)CC1 (configuration not stated)
i,nt,O=c1[nH]c2ccccc2nc1C(F)(F)C(F)F
i,>57,COc1ccc(Br)cc1CNC(=O)C1CCN(S(=O)(=O)N2CCCC2)CC1
i,nt,Cn1nnnc1SCC(=O)N1CCN(c2ccccc2)CC1
i,i,O=C(O)c1ccc(NS(=O)(=O)c2cc(Cl)ccc2Cl)cc1O
i,>57,OCc1csc(=Nc2ccccc2)n1-c1ccccc1

# Next section:
YjeE inh,PK Bst,smiles
i,>57,CCCn1c(SCC(=O)N2CCc3ccccc3C2)nc2c1c(=O)n(C)c(=O)n2C
i,>57,COc1ccc(C(c2nnnn2C2CCCC2)N2CCC(C(N)=O)CC2)c(OC)c1 (configuration not stated)
i,>57,CC(c1ccco1)N(C(=O)CSc1ccc(Br)cc1)c1ccccn1 (configuration not stated)
i,nt,CCCn1c(=S)[nH]c2cc(C(=O)NCC3CCCO3)ccc2c1=O (configuration not stated)
i,>57,N#Cc1ccccc1OCC(=O)OCC(=O)c1ccc2c(c1)NC(=O)CO2
i,>57,Cc1ccc(-c2c(C)n([O-])c3c([n+]2=O)CCC3)o1
i,>57,Cn1c(=O)[nH]c(=O)c2[nH]c(CN3CCN(C(=O)c4ccco4)CC3)nc21
i,nt,COc1c2occc2c(OC)c2c(=O)cc(C(F)(F)C(F)(F)F)oc12
i,nt,CN(C)c1ncc2ncc(=O)n(Cc3cccs3)c2n1
i,nt,CN(C)CCC[C@@H]1c2ccccc2Oc2ccc(C(F)(F)F)cc21
nt,>11,Nc1ncnc2nc(SCc3ccccc3)[nH]c12
i,nt,Cc1cccnc1NC(=O)C1CCN(S(=O)(=O)c2ccc3c(c2)CCC(=O)N3)CC1

# Three entries from above, bar-delimited:
molecule | YjeE inh | PK Bst
CN(C)CCC[C@@H]1c2ccccc2Oc2ccc(C(F)(F)F)cc21 | i | nt
Nc1ncnc2nc(SCc3ccccc3)[nH]c12 | nt | >11
Cc1cccnc1NC(=O)C1CCN(S(=O)(=O)c2ccc3c(c2)CCC(=O)N3)CC1 | i | nt

# (cont.)
YjeE inh,PK Bst,smiles
i,>57,COc1cccc(NC(=O)CN2CCN(c3ccc(F)cc3)CC2)c1
i,>57,CCOC(=O)c1cc(C(C)(C)C)oc1CN
i,>57,O=C(NCCN1CCCCC1)Nc1ccc(F)c(Cl)c1
i,>57,Cc1cc(C)n(CCc2nc3c4ccccc4n(CC(=O)Nc4ccc(Cl)cc4F)c(=O)n3n2)n1
i,>57,COc1ccc(CCNC(=O)C2CCCN(Cc3nc(-c4ccccc4C)oc3C)C2)cc1OC (configuration not stated)
i,>57,COC(=O)CNC(=O)Cn1ccc2ccccc2c1=O
i,nt,Cn1cccc1Cc1nnc(SCC(=O)Nc2nccs2)n1CCc1ccccc1
i,nt,COC(=O)[C@@]1(Cc2ccccc2)[C@H]2c3cc(C(=O)N(C)C)n(Cc4cc(C)n(C)n4)c3C[C@H]2CN1C(=O)c1ccccc1
i,>57,OCCNCC1(O)C2CC3CC(C2)CC1C3 (configuration not stated)
i,>57,Cc1ccc2cc(CN(Cc3nnnn3Cc3ccco3)CC3CCCO3)c(=O)[nH]c2c1C (configuration not stated)
i,>57,Cc1ccc(Cl)cc1NC(=O)c1ocnc1C
i,>57,Cc1nnc2sc(-c3ccc(NC(=O)c4ccc(-c5ccc(Br)cc5)o4)cc3)nn12

# (cont.)
YjeE inh,PK Bst,smiles
i,>57,CCN(CC)S(=O)(=O)c1cccc(C(=O)Nc2ccccc2C(=O)N2CCOCC2)c1
i,>57,CCOc1ccc(NC(=O)C2CCN(C(=O)NCc3ccccc3)CC2)cc1
i,i,CCSc1nc(C)nc2c1oc1ccccc12
i,nt,COc1ccccc1CN1CCC2(CC1)CCN(C(=O)c1ccncc1)CC2
i,>57,COc1ccc(CC(=O)NCc2ccccc2Cl)cc1S(=O)(=O)N1CCOCC1
i,>57,NC1=NCc2ccccc21
i,>57,COC(=O)c1ccc(C2CC(=O)NC3=C2C(=O)CCC3)cc1 (configuration not stated)
i,>57,CN1CCN(S(=O)(=O)c2ccc(NC(=O)c3ccc(F)cc3)cc2)CC1
i,>57,COc1ccc(-c2cc(C(=O)N3CCN(Cc4ccccc4)CC3)no2)cc1OC
i,>57,O=C(NCc1ccccc1)c1c[nH]c2ccc(S(=O)(=O)Nc3ccc4c(c3)OCCO4)cc2c1=O
i,>57,O=C(Nc1nncs1)c1ccccc1NS(=O)(=O)c1cccs1
i,nt,CC(=O)OCCn1c(=O)c2cc3c(=O)n(CCOC(C)=O)c(=O)c3cc2c1=O

# Entries from the list above that have a COOH group (four):
YjeE inh,PK Bst,smiles
i,nt,C[C@H](Oc1ccc(Oc2cnc3ccc(Cl)cc3n2)cc1)C(=O)O
i,>57,O=C(O)CNC(=O)c1ccc(OC(F)F)cc1
i,nt,O=C1c2ccccc2C(=O)N1C1(C(=O)NC2(C(=O)O)CCCC2)CCCC1
i,i,O=C(O)c1ccc(NS(=O)(=O)c2cc(Cl)ccc2Cl)cc1O

# (more compounds)
YjeE inh,PK Bst,smiles
i,nt,CCOC(=O)C1CCN(C(c2cc(OC)c(OC)c(OC)c2)c2sc3nc(C)nn3c2O)CC1 (configuration not stated)
i,nt,c1ccc2n[nH]nc2c1
nt,>26,O=C1CCC(=O)N1CNc1ccccn1
i,nt,COc1ccc(C)cc1N
i,>57,O=C(c1cccs1)N1CCN(Cc2nc3ccccc3c(=O)[nH]2)CC1
i,>57,CCN(CC)CCN1C(=O)c2oc3ccccc3c(=O)c2C1c1ccc(F)cc1 (configuration not stated)
i,>57,CC(C)c1nc(N2CCN(C(=O)c3ccccc3)CC2)c(C#N)c2c1COC(C)(C)C2
i,>57,CC1(C)Cc2cccc(OCC(=O)Nc3nccs3)c2O1
i,nt,CCCCCCCC(=O)O
i,nt,Cn1c(SCC(=O)Nc2cc(=O)n(C)c(=O)n2C)nnc1-c1cccs1
i,>57,O=C1c2ccccc2C(=O)N1CC(O)COCc1ccccc1 (configuration not stated)

# Screening results: PubChem, National Center for Advancing Translational Sciences (NCATS)
